Screens (PubChem)
INS promoter inh: TRM-6 insulin promoter activity inhibition; actives 0.9% (n = 130,000); TRM-6 cells (human fetal islet line), insulin promoter-eGFP reporter, imaging; reporter expression induced with tamoxifen; AID 1273; inhibition, % at 2 µM;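 active means inhibition above the mean plus 3 SD, with well images judged a real hit on visual review, cut at about 60% in these data, passing the limit was not always enough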
GALR2 agonist: GALR2 (human) receptor agonism; O43603; actives 0.48% (n = 140,000); activation, %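 (tested at 5 µM)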; GALR2-expressing cells, agonist activation read-out;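 active means above mean plus 3 SD of all compounds, about 5% in these data, not always enough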;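 further: 0% = vehicle buffer wells and 100% = reference agonist at full effect; tested in CHO reporter cells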
Target sequence (O43603 whole entry, looked up): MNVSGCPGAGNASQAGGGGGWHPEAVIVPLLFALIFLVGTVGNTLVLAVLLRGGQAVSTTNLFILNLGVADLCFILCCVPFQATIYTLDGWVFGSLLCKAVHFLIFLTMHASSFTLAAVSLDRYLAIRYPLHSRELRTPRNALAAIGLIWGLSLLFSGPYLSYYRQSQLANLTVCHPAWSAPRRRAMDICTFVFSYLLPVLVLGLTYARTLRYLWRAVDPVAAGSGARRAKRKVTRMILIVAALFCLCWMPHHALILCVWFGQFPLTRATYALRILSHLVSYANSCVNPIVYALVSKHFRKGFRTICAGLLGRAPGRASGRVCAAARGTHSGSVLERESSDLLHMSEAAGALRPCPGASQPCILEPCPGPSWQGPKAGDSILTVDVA
HSV replic up: increases HSV replication in cells; HSV replication augmentation in cells, fold increase; maximum fold increase; actives 0.005% (n = 220,000); AID 1956;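 active means peak rise of 1.5-fold or more in the series; tested in PC3 cells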;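 further: first round at 10 µM; read as green reporter fluorescence; hits show the peak of a series up to 25 µM; 1 = signal of infected wells without compound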
RGS16-Gao: regulators of human RGS16-Galphao interaction. actives 0.38% (n = 220,000). binding response (% of control), % at 10 µM. bead-based flow cytometry RGS16-Galphao binding, fluorescence; actives lie on both sides. O15492+P09471;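 active means below 25% or above 175%, edge rows of some plates excepted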;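 further: Galphao activated by GDP with aluminum fluoride before binding; 100% = wells without compound and 0% = beads without RGS; some results beyond the cut were filed as inactive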
Target sequence (O15492 whole entry, looked up): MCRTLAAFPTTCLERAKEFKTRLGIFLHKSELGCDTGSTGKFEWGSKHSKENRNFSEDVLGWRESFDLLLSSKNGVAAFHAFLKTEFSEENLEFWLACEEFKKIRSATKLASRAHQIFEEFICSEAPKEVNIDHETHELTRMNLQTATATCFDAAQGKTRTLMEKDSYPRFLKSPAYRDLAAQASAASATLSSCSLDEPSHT
Target sequence (P09471 whole entry, looked up): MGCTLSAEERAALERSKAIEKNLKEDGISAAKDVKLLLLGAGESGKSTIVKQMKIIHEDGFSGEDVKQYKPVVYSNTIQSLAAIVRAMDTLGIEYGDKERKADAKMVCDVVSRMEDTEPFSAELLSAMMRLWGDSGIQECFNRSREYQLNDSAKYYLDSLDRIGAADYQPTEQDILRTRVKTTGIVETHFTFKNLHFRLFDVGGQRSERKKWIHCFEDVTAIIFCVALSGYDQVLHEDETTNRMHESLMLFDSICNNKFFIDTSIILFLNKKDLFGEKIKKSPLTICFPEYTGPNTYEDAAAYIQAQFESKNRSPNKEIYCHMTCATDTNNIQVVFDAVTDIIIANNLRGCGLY
PKD1 kinase inh: blocks activity of human protein kinase D1; PKD1 kinase fluorescence polarization assay; inhibition, %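 (about 10 µM by stock and volumes)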; actives 0.056% (n = 200,000); AID 797;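 active means inhibition of 50% or more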;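 further: controls were vehicle for no effect and a reference inhibitor for full effect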
INS promoter inh cell count: second read-out of INS promoter inh, no call of its own (marks repeat the call); normalized cell count, %; measured here: cell count, toxicity; reference of the scale not given here;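 cells exposed to compound for 48 h; stained nuclei by imaging scaled within each plate; lower means fewer cells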
HSV replic up primary fold: further read-out of HSV replic up, marked with its call; fold increase; compound at 10 µM; measured here: primary screen fold increase 10 uM; tested in PC3 cells;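 GFP signal in the first replicate; 1 = infected wells without compound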
* marks the source's active call; other numbers are inactive results; i = inactive; · = no result given; & = joins results of further samples.

structure,INS promoter inh,INS promoter inh cell count,GALR2 agonist,HSV replic up,HSV replic up primary fold,RGS16-Gao,PKD1 kinase inh
O=C(CC1SC(=Nc2ccccc2F)N(CCN2CCOCC2)C1=O)Nc1ccc(F)cc1F (centres undefined),·,·,·,i,0.92,93,1
CC(=O)Nc1ccc(NC(=O)COC(=O)[C@@H](NC(=O)c2ccc(F)cc2)C(C)C)cc1,-78,99,·,i,1.1,99,-7
COC(c1ccccc1)c1nnc(CCC(=O)NCc2ccc3ncccc3c2)o1 (centres undefined),·,·,·,i,0.92,104,0
COc1cc(NC(=O)c2ccccc2)c(OC)cc1NC(=O)CN1CCCCC1,14,133,-2.0,i,0.95,103,-2
COc1ccccc1-c1nc(-c2ccccc2)nc(N2CCN(C)CC2)c1C#N,·,·,·,i,0.78,99,-6
Cc1c(Br)c([N+](=O)[O-])nn1CC(=O)NCC1CCCO1 (centres undefined),·,·,·,i,0.96,111,-7
C/C(=N/NC(=O)c1ccc(Br)o1)c1cccc(NC(=O)c2ccc(C)o2)c1,-30,68,-1.4,i,0.95,89,-5
Cc1cc(C)nc(NC(=O)CN2C(=O)c3ccccc3C2=O)n1,·,·,-2.8,i,0.7,104,-17
O=C(O)CC1(CC(=O)Nc2cc(C(F)(F)F)cc(C(F)(F)F)c2)CCCCC1,·,·,·,i,0.87,97,·
CC(=O)N1CCN(C(=S)c2ccc(N(C)C)cc2)CC1,-7,74,-1.1,i,0.91,92,-45
Cc1ccc(-c2csc3nnc(SCC(=O)Nc4nsc(-c5ccccc5)n4)n23)cc1,-8,117,-1.2,i,0.98,·,-9
O=C(NC(C(=O)NCCN1CCOCC1)C12CC3CC(CC(C3)C1)C2)C1CCCCC1 (centres undefined),8,101,-0.8,i,0.98,105,0
COc1ccc(S(=O)(=O)Nc2ccc3c(c2)OCO3)cc1OC,-23,113,0.6,i,0.87,119,-9
Clc1cccc(Cl)c1CSc1cc2c(nn1)-c1ccccc1CC2,-18,110,-1.1,i,0.79,94,-10
CCn1ccc(C(=O)Nc2c(C)nn(Cc3c(F)c(F)c(F)c(F)c3F)c2C)n1,-364,50,-2.1,i,0.93,109,1
Cc1ccc(NS(=O)(=O)c2ccc(Br)cc2)nc1,·,·,·,i,1.6,101,6
CN1C(=O)c2ccccc2C(C(=O)NCCCN2CCCC2)C1c1c[nH]c2ccccc12 (centres undefined),55,90,-1.1,i,1.1,110,-2
Cc1nc(-c2ccc(NC(=O)/C=C\C(=O)O)cc2)cs1,0,82,·,i,0.98,103,1
COc1cc(/C=N/n2c(-c3ccc4c(c3)NC(=O)CO4)csc2=Nc2cccc(C)c2)ccc1O,31,123,1.6,i,0.88,90,22
O=C(CSc1ncc(C(F)(F)F)cc1Cl)N1CCN(S(=O)(=O)c2ccc3ccccc3c2)CC1,9,51,-0.7,i,1.1,105,7
CSc1nc(-c2ccccc2)nc2[nH]ccc(=O)c12,11,106,-0.2,·,·,·,17
CC(=O)c1ccc(NS(=O)(=O)c2ccc3ccccc3c2)cc1,-16,111,-2.0,i,0.98,121,-10
O=C(Nc1nccs1)c1cc2cc(Cl)ccc2oc1=O,·,·,·,i,0.92,96,·
COc1ccc(NC2=C(Cl)C(=O)N(c3ccccc3)C2=O)c(OC)c1,14,104,·,i,0.9,88,-3
O=[N+]([O-])c1cccc(/C=N/n2c(-c3cccnc3)n[nH]c2=S)c1,8,49,-0.9,i,1.1,0,-12
COc1cccc(OCCn2ccnc2)c1,-252,118,-1.2,i,0.77,92,-5
O=C(c1ccc(NC(=S)Nc2ccc(F)cc2F)cc1)N1CCOCC1,·,·,·,i,1.1,99,-1
O=c1oc(-c2cccs2)nc2ccccc12,14,96,-1.6,i,0.83,96,9
C#CCNC(=O)C1=C[C@H](c2ccc(Br)cc2)[C@@H](CCCO)[C@H](OCC)O1,·,·,·,i,1,103,-1
O=C(O)Cn1cc(C(=O)C2CC2)c2ccccc21,-25,119,-0.2,i,1.1,103,-5
CC1(C)Oc2ccc(C(=O)NC3CC3)cc2N(CC(=O)N2CCOCC2)C1=O,52,92,-2.6,i,0.92,95,2
CC1(C)C(=O)Nc2ccccc2N1C(=O)COC(=O)Cn1cnc2ccccc2c1=O,-3,166,-0.8,i,1.1,107,-1
COCCNC(=O)C1Cc2c(ccc3ccccc23)O1 (centres undefined),-8,143,·,i,0.93,98,-10
COCCn1c(SCC(=O)NCCc2ccc(OC)c(OC)c2)nc2c([nH]c3ccccc32)c1=O,-13,96,·,i,0.9,93,-1
O=C(NCCN1C(=O)S/C(=C\c2cccnc2)C1=O)c1cc(S(=O)(=O)N2CCOCC2)ccc1F,·,·,·,i,0.92,104,·
COc1ccc(Br)cc1/C=N/NC(=O)c1nc(-c2ccccc2)n2c1CCCCC2,·,·,-2.6,i,0.91,105,-1
O=C(Cc1c(F)cccc1Cl)Nc1ccon1,50,136,-2.5,i,0.8,103,2
CCOC(=O)c1c(C)nc(C)c(C(=O)OCC)c1-c1ccc(OC)cc1,-30,98,-3.2,i,0.93,92&92,7
O=C1CCC(=O)N1CN(C(=O)c1ccco1)c1ccccc1,·,·,0.3,i,0.91,99,4
O=C(c1cccc(S(=O)(=O)N2CCCCC2)c1)N1CCc2ccccc21,-5,148,-0.5,i,0.87,100,-5
COc1ccc(/C=C(\C#N)c2nc3ccc(C)cc3[nH]2)cc1Oc1ccc(C(F)(F)F)cc1[N+](=O)[O-],·,·,-1.2,·,·,99,4
CCOC(=O)C1=NN(c2ccccc2)C2=NC(C)=C(C(=O)OC)C(c3ccc(C)cc3)N12 (centres undefined),27,124,-0.5,i,0.89,107,-13
CC(C)C(=O)Nc1ccc(Nc2ccccc2)cc1,·,·,-2.6,i,0.94,148,-5
CC(C)COc1ccc(C(=O)NCc2ccco2)cc1,50,97,-0.7,i,0.85,96,-2
O=C1CC(NCc2ccc3c(c2)OCO3)C(=O)N1CCc1ccccc1 (centres undefined),15,46,-1.1,i,0.84,102,5
COC(=O)c1ccccc1NC(=S)N(Cc1ccc2c(c1)OCO2)Cc1cc2ccc(OC)cc2[nH]c1=O,-108,131,-0.7,·,·,102,-4
CC(C)(C)c1cc(NCCCn2ccnc2)n2ncc(-c3ccc(Cl)cc3)c2n1,-8,97,-0.3,i,0.65,106,-7
O=C(/C=C/c1cccs1)c1ccc([N+](=O)[O-])cc1,·,·,·,i,0.89,91,·
CSc1nsc(SC)c1C(=O)Nc1ccc(Cl)cc1,·,·,·,i,0.95,99,·
O=C(NNC(=O)C1CCCCC1)c1ccc(Br)cc1,·,·,·,i,0.94,103,1

Another view of some results above:
Order of values: INS promoter inh | INS promoter inh cell count | GALR2 agonist | HSV replic up | HSV replic up primary fold | RGS16-Gao | PKD1 kinase inh
> C/C(=N/NC(=O)c1ccc(Br)o1)c1cccc(NC(=O)c2ccc(C)o2)c1
 : -30 | 68 | -1.4 | i | 0.95 | 89 | -5
> Cc1cc(C)nc(NC(=O)CN2C(=O)c3ccccc3C2=O)n1
 : · | · | -2.8 | i | 0.7 | 104 | -17
> O=C(O)CC1(CC(=O)Nc2cc(C(F)(F)F)cc(C(F)(F)F)c2)CCCCC1
 : · | · | · | i | 0.87 | 97 | ·
> CC(=O)N1CCN(C(=S)c2ccc(N(C)C)cc2)CC1
 : -7 | 74 | -1.1 | i | 0.91 | 92 | -45

New compounds follow
structure,INS promoter inh,INS promoter inh cell count,GALR2 agonist,HSV replic up,HSV replic up primary fold,RGS16-Gao,PKD1 kinase inh
CN(C)c1ccc(C2=NOC(CN3C(=O)c4ccccc4S3(=O)=O)C2)cc1 (centres undefined),·,·,-3.7,i,1.1,83,-10
O=C(CN1CCC(Cc2ccccc2)CC1)NC(=O)NC1CCCCC1,-27,100,·,i,1.2,97,-2
CC1CCN(c2c(NCC3CCC(C(=O)NCc4ccccc4)CC3)c(=O)c2=O)CC1 (centres undefined),-30,70,0.0,·,·,99,0
COc1ccccc1C(=O)Nc1ccc(S(=O)(=O)Nc2onc(C)c2C)cc1,·,·,·,i,0.98,96,·
CN(C)c1ccc(C(=S)NCc2ccco2)cc1,16,68,-1.8,i,0.99,87,-3
COc1ccc(NC(=S)Nc2ccccc2)c(OC)c1,-7,47,·,i,1,115,-1
COc1cc2ncnc(NCc3ccc(C)o3)c2cc1OC,·,·,·,i,1.1,100,-4
Cc1cccc(-c2c3c(=O)n(C)c(=O)n(C)c3cn2-c2ccccc2O)c1,·,·,-0.9,i,1.1,94,-16
COc1ccccc1N(C)S(=O)(=O)c1ccc(C(=O)N2CCC(C(N)=O)CC2)cc1,16,74,-1.2,i,0.8,82,6
Cc1ccc(S(=O)(=O)/N=C(/c2ccccc2)N2CCOCC2)c(C)c1,·,·,·,i,0.71,99,-3
CCN(CC)CCn1c(SCC(=O)NCc2ccco2)nc2c(sc3ccccc32)c1=O,0,74,-0.9,i,1.1,113,2
c1ccc(Nc2nc(N3CCCCC3)nc(N3CCNCC3)n2)cc1,·,·,-2.9,·,·,98,-6
S=c1[nH]nc(-c2n[nH]c3c2CCC3)n1/N=C/C=C/c1ccccc1,·,·,·,i,0.91,93,·
CC(NC(=O)C1CCCCC1)C(c1cccs1)N1CCOCC1 (centres undefined),·,·,·,i,0.91,98,·
O=C(NCCSc1ccc(Cl)cc1)c1ccco1,·,·,-2.0,i,1.2,113,0
Cc1ccc(-c2nn(-c3cc(N4CCNCC4)ccc3[N+](=O)[O-])c(=O)c3ccccc23)cc1,-47,72,·,i,0.67,101,-1
Cn1cccc1Cc1nnc(SCC(=O)N2CCCC2)n1CCc1ccccc1,·,·,-4.9,i,0.94,107,-11
CCCN(CC1CC1)C(=O)CSc1ncnc2sccc12,·,·,·,i,0.91,98,3
COc1cc(SC)ccc1C(=O)Nc1cc(C)ccn1,·,·,·,i,0.98,100,-13
Cc1cc(C)cc(N2C(=O)CC(Sc3nnnn3-c3ccccc3)C2=O)c1 (centres undefined),54,64,-1.7,i,0.93,95,8
COc1ccc(NC(=O)c2cncc(Br)c2)c(S(=O)(=O)N2CCOCC2)c1,53,71,-1.4,i,1.2,123,-22
CCOC(=O)CCc1c(C)c2ccc(OCc3cc([N+](=O)[O-])ccc3OC)c(C)c2oc1=O,-14,96,-0.3,i,1,107,3
CCN=c1sc(C(=O)NCCc2ccccc2)cc(=O)n1CC,·,·,-1.5,i,0.85,98,5
CC(/C=N/N1CCN(c2ccccc2)CC1)=C\c1ccco1,37,54,-3.2,·,·,97,-6
COc1ccc(F)cc1C(=O)C1CCCN(C(=O)C2=C(C)OCCO2)C1 (centres undefined),·,·,·,i,0.95,101,-5
COC(=O)c1sc(N(C)C)c(C#N)c1-c1ccccc1,·,·,·,i,0.93,96,·
O=S(=O)(/C=C/c1ccccc1)N1CCN(c2nc(-c3cccnc3)nc3ccccc23)CC1,-37,102,·,i,0.99,102,0
Cc1nc(/C=C\C(=O)O)c2cc(C)oc2n1,·,·,·,i,1,102,4
COC(=O)CN(c1ccc(C)cc1)S(=O)(=O)c1c(C)[nH]c(=O)[nH]c1=O,-4,63,-1.9,i,0.84,100,7
Cc1[nH]cc(Br)c(=O)c1Oc1ncc(C(F)(F)F)cc1Cl,8,136,·,·,·,101,-6
S=C(NC1CCCC1)NC1CCCC1,·,·,·,i,0.82,96,-6
Cc1ccc(S(=O)(=O)/N=C(/c2ccccc2)N(C)c2ccc(O)cc2)cc1,0,79,·,i,0.89,101,-2
C#CCOCCOCCOCCNc1nc(N2CCOCC2)nc(N2CCN(C(=O)[C@H]([C@@H](C)CC)n3cc([C@@H](N)CC(C)C)nn3)CC2)n1,·,·,·,i,0.98,116,15
COc1ccc(CNc2nc(NCc3ccc(OC)c(OC)c3)n(C(=O)c3cccs3)n2)cc1OC,-5,169,-0.1,i,0.85,98,-4
CCOc1ccc(N2CC(C(=O)NCc3cccc(C)c3)CC2=O)cc1 (centres undefined),38,150,-3.1,i,0.94,99,-6
Cc1ccc(-c2nnc(-c3ccccc3)o2)cc1,-8,105,-1.1,i,0.99,102,-7
COC(=O)c1cc(NC(=O)Cc2cc(OC)c(OC)c(OC)c2)cc(C(=O)OC)c1,-33,83,·,i,0.99,102,-1
C/C(CC(=O)NC(C)(C)C)=N\NC(=O)c1ccco1,-29,121,0.1,i,0.98,106,-5
O=C(CCCc1nc2ccccc2s1)Nc1ccc(N2CCOCC2)cc1,·,·,·,i,0.99,96,-5

Not a hit list. About 1.3% of those tested had a hit in this group.
